Screens as filed in PubChem BioAssay.
Marburg entry inh: blocks Marburg virus binding to or entry into cells. Potency, µM (highest dose often 37.8 µM), for inactives: at the top dose activity change, negative = inhibition, usual class: inhibitors. 1.8% of 300,000 active. Marburg virus pseudotyped entry inhibition, cell reporter; control for the full effect not named in the record; about a third of the inactives were read at about 46 µM; active = well fitted inhibition curve with a large enough effect; inconclusive = small, poorly fitted or top-dose-only effect, or effect the other way; inactive = flat fitted curve, though single readings scatter; tested in HEK293 cells; about a fifth of its hits are not listed in these tables; further: on the % scale 0 is the no-effect control and ±100 the full control effect; luciferase read-out
RE007 growth inh: less growth of the S. pombe RE007 Vpr strain | S. pombe RE007 Vpr strain, BacTiter-Glo ATP luminescence, 24 h; control for the full effect not named in the record | Potency, µM (doses to about 92.2 µM), inactives show at the top dose activity change, negative = less growth | 0.21% of 360,000 active; active = well fitted falling curve with a large enough effect; inconclusive = small, poorly fitted or top-dose-only effect; inactive = no such curve, though single readings can be large or run the other way;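 further: on the % scale 0 is the no-effect control and ±100 the full control effect; nearly all actives have a fitted effect of over 50% in size; the assay follows cell death caused by Vpr and the record does not say whether a fall means rescue or toxicity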
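Fission yeast RE007 carrying one integrated HIV-1 vpr copy, seeded at OD 0.01 in PMG+AL medium with 23 nL pinned compound. Grown 24 h at 30 degrees; viability read by BacTiter-Glo luminescence after 5 min.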
Cruzain Triton: blocks cruzain activity in presence of Triton detergent. purified cruzain, Z-FR-AMC fluorescence, 0.01% Triton. Potency, µM, inactives show max response, negative = inhibition, usual class: inhibitors. 0.43% of 200,000 active. AID 1478;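 further: plate controls were neutral wells for no effect and buffer without enzyme for full effect; nearly all actives have a fitted effect of over 40% in size; top concentration of the series not given in the record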
Target sequence (P25779 123-467 limits assumed): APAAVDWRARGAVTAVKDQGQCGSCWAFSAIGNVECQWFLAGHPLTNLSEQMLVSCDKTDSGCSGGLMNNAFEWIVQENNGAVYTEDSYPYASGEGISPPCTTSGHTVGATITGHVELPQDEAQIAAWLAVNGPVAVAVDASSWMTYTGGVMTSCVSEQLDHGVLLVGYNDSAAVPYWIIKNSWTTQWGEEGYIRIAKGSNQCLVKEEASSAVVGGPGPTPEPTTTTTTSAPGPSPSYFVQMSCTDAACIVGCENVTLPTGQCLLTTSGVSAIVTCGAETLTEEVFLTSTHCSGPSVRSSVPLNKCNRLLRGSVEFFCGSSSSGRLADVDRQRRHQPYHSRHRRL
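Cruzain (1.5 nM) preincubated 15 min at RT with compound in 100 mM sodium acetate pH 5.5, 5 mM DTT, 0.01% Triton X-100. Reaction started with 2 uM Z-FR-AMC; AMC fluorescence (ex 360/em 450 nm) change over 60 s gave rate.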
LASV entry inh: Lassa virus entry inhibition | Lassa virus pseudotype entry inhibition, cell reporter; control for the full effect not named in the record | Potency, µM (doses to about 37.9 µM), for the others: top-dose activity change, negative = inhibition, actives largely listed as inhibitors | 1.2% of 300,000 active; active means well fitted inhibition curve with a large enough effect; inconclusive means small, poorly fitted or top-dose-only effect, or effect the other way; inactive means flat fitted curve, though single readings scatter; tested in HEK293 cells; further: on the % scale 0 is the no-effect control and ±100 the full control effect; nearly all actives have a fitted effect of over 50% in size; luciferase read-out
2A StopGo: lowers the luciferase signal of an FMDV 2A StopGo reporter; human cells with a luciferase reporter of 2A StopGo recoding; control for the full effect not named in the record; Potency, µM (highest dose often 57.9 µM), for inactives: top-dose signal change, negative = less light; 1.2% of 410,000 active; active = well fitted falling curve with a large enough effect; inconclusive = small, poorly fitted or top-dose-only effect; inactive = no such curve, though single readings can be large or run the other way; tested in HEK293T cells; further: on the % scale 0 is the no-effect control and ±100 the full control effect; nearly all actives have a fitted effect of over 45% in size; luciferase light after 4 h
Cruzain inh noDet: inhibitors of Trypanosoma cruzi cruzain without detergent | AID 1476 | Potency, µM, inactives show max response, negative = inhibition, usual class: inhibitors | P25779 | 2.3% of 200,000 active | purified cruzain, Z-FR-AMC fluorescence, no detergent;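 further: plate controls were enzyme without inhibitor for no effect and buffer without enzyme for full effect; nearly all actives have a fitted effect of over 40% in size; top concentration of the series not given in the record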
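Detergent-free condition (0.00005% Triton X-100) in acetate buffer pH 5.5 with DTT. 1.5 nM enzyme and compound were pre-mixed 15 min, then 2 uM Z-FR-AMC substrate added; reaction progress from fluorescence change between first and third reads (60 s).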
NS1 inh: inhibitors of influenza NS1 protein function; S. cerevisiae slowed by influenza A NS1, growth recovery by OD600; Potency, µM (series often up to 46.1 µM), inactives show at the top dose activity, positive = more growth; 0.4% of 270,000 active; AID 2326; active means well fitted rising curve with a large enough effect; inconclusive means small, poorly fitted or top-dose-only effect; inactive means no such curve, though single readings can be large or run the other way; further: nearly all actives have a fitted effect of over 50% in size
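S. cerevisiae expressing influenza A NS1, grown in glucose, washed, then diluted 1:100 into pH 6.0 -URA galactose medium with 23 nl compound. Growth recovery read as OD600; NS1-free strain serves as control.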
SARS PLP yeast: inhibitors of SARS-CoV papain-like protease in yeast | S. cerevisiae expressing SARS-CoV PLpro, growth rescue; control for the full effect not named in the record | Potency, µM (highest dose often 32.9 µM), inactives show top-dose activity, positive = growth rescue | 0.19% of 330,000 active; active means well fitted rising curve with a large enough effect; inconclusive means small, poorly fitted or top-dose-only effect; inactive means no such curve, though single readings can be large or run the other way; further: 0% is about no effect; nearly all actives have a fitted effect of over 55% in size; growth read by luminescence after 48 h
* hit, by the source's call; & = joins results of further samples; [ ] = another dose, or the depositor's remark. Unless noted, the call rests on the fitted dose curve; in most records, active means well fitted curve in the direction sought with a large enough effect; inconclusive means small, poorly fitted or top-dose-only effect, or another doubt; inactive means no such curve, though single readings can be large; an effect the other way counts as inactive or inconclusive. Potency means the concentration at half of the fitted maximal effect.

How did O=C(CCCSc1nc(-c2ccco2)cc(C(F)(F)F)n1)NCC1CCCO1 (configuration not stated) do in these assays?
Marburg entry inh: -6%; RE007 growth inh: -12%; Cruzain Triton: -7.8%; LASV entry inh: -9%; 2A StopGo: 24%; Cruzain inh noDet: inconclusive; NS1 inh: -2%; SARS PLP yeast: 0%

How did CCOC(=O)c1ccc(-n2c(C)ccc2C)cc1 do in these assays?
Marburg entry inh: 5%; RE007 growth inh: 3%; Cruzain Triton: -4.1%; LASV entry inh: -3%; 2A StopGo: 2%; Cruzain inh noDet: -6%; NS1 inh: 8%; SARS PLP yeast: 7%

What do the screens show for `CC1CN(C(=O)c2cc(S(=O)(=O)N(C)c3ccc(F)cc3)ccc2Cl)CC(C)O1` (configuration not stated)?
Marburg entry inh: inconclusive; RE007 growth inh: -24%; LASV entry inh: inconclusive; 2A StopGo: -30%; NS1 inh: 20%; SARS PLP yeast: 7%

How did O=c1[nH]c2ccsc2c(=O)n1CCO do in these assays?
RE007 growth inh: -2%; 2A StopGo: -20%; NS1 inh: -1%; SARS PLP yeast: -1%

Results for COc1ccc(S(N)(=O)=O)cc1C(=O)N(C)CC(=O)Nc1ccc(N2CCOCC2)cc1 ?
Marburg entry inh: 10%; RE007 growth inh: -10%; LASV entry inh: -3%; 2A StopGo: -3%; NS1 inh: 2%; SARS PLP yeast: 1%

How did O=C(NCC1CCCO1)c1cccc(S(=O)(=O)N2CCCCC2)c1 (configuration not stated) do in these assays?
Marburg entry inh: inconclusive; RE007 growth inh: 7%; LASV entry inh: -10%; 2A StopGo: -13%; SARS PLP yeast: -5%

Results for CCC(C)(C)c1ccc(Oc2cccc(C(=O)O)c2)cc1 ?
Marburg entry inh: 4%[46.1 µM]; RE007 growth inh: 5%; Cruzain Triton: -4.4%; LASV entry inh: 17%[46.1 µM]; 2A StopGo: 38%[activator]; Cruzain inh noDet: -10%; NS1 inh: -36%&-51%; SARS PLP yeast: -9%

What do the screens show for `Cc1cc(C)nc(-n2nc(C)c(Oc3ccccc3O)c2C)n1`?
Marburg entry inh: 20%; RE007 growth inh: 1%; Cruzain Triton: 5.3%; LASV entry inh: 4%; 2A StopGo: 4%; Cruzain inh noDet: 3%; NS1 inh: 7%; SARS PLP yeast: 7%

How did COc1ccc(NC(=O)Cn2c(=O)n(-c3ccc(C)cc3)c(=O)c3c2cnn3C)cc1 do in these assays?
Marburg entry inh: inconclusive; Cruzain Triton: 1.2%; LASV entry inh: -9%[46.1 µM]; 2A StopGo: -24%; Cruzain inh noDet: 20%

What do the screens show for `O=S(=O)(Nn1cnnc1)c1ccccc1Cl`?
Marburg entry inh: 1%; RE007 growth inh: 9%; Cruzain Triton: 6.4%; LASV entry inh: 10%; 2A StopGo: -16%; Cruzain inh noDet: -2%; NS1 inh: 1%; SARS PLP yeast: 7%

Results for O=c1[nH]c(O)c(C=Nc2ccc(Cl)cc2Cl)c(=O)[nH]1 ?
Marburg entry inh: inconclusive; RE007 growth inh: -21%; LASV entry inh: 8%[46.1 µM]; 2A StopGo: -4%; NS1 inh: 0%; SARS PLP yeast: 1%

How did O=C(Cn1ncc2c3ccccc3n(Cc3ccc(Cl)cc3)c2c1=O)NCc1cccs1 do in these assays?
Marburg entry inh: 4%[46.1 µM]; Cruzain Triton: -2.5%; LASV entry inh: 17%[46.1 µM]; 2A StopGo: 11%; Cruzain inh noDet: 3%

Results for COc1ccc(S(=O)(=O)N2CCC(C(=O)NCc3ccccn3)CC2)cc1C ?
Marburg entry inh: 16%; RE007 growth inh: 0%; Cruzain Triton: 0.3%; LASV entry inh: -9%; 2A StopGo: -14%; Cruzain inh noDet: -10%; NS1 inh: 4%; SARS PLP yeast: 4%

Results for CCC(C(=O)NC1CCCC1)N(C(=O)Cn1nnc(-c2ccc(OC)c(OC)c2)n1)c1cccc(O)c1 (configuration not stated) ?
Marburg entry inh: inconclusive; RE007 growth inh: -10%; LASV entry inh: -19%[46.1 µM]; 2A StopGo: -11%; NS1 inh: 6%; SARS PLP yeast: 0%

What do the screens show for `Cc1cccc(CN2CCN(C(=O)c3cccc4ccccc34)CC2)c1`?
Marburg entry inh: inconclusive; RE007 growth inh: 4%; LASV entry inh: -1%; 2A StopGo: -1%; NS1 inh: -25%; SARS PLP yeast: 4%

How did COc1cc(C(=O)Nc2ccc3c(c2)N(C2CCCC2)C(=O)c2ccccc2S3)cc(OC)c1OC do in these assays?
Cruzain Triton: -0.1%; LASV entry inh: -22%[46.1 µM]; 2A StopGo: -7%; Cruzain inh noDet: -4%

What do the screens show for `Clc1ccc2[nH]c3c(c2c1)CNCC3`?
Marburg entry inh: inconclusive; RE007 growth inh: -17%; LASV entry inh: 9%; 2A StopGo: inconclusive; NS1 inh: 0%; SARS PLP yeast: -3%

How did NS(=O)(=O)c1ccc(NC(=O)CCC(=O)c2ccc(Cl)s2)cc1 do in these assays?
Marburg entry inh: 15%[46.1 µM]; RE007 growth inh: 3%; LASV entry inh: 16%[46.1 µM]; 2A StopGo: 10%; NS1 inh: 7%; SARS PLP yeast: -2%

Results for CCN(CCCNC(=O)c1cn(CC)c2ccc(S(=O)(=O)N(C)C)cc2c1=O)c1cccc(C)c1 ?
Marburg entry inh: 3%&-19%; RE007 growth inh: -18%; Cruzain Triton: -2.7%; LASV entry inh: inconclusive; 2A StopGo: -24%; Cruzain inh noDet: inconclusive; NS1 inh: -33%; SARS PLP yeast: -1%

What do the screens show for `COC(=O)[C@@]1(Cc2ccc(F)cc2)[C@H]2c3cc(C(=O)N(C)C)n(Cc4cc(C)n(C)n4)c3C[C@H]2CN1C(=O)c1ccccc1`?
RE007 growth inh: -7%; Cruzain Triton: 0.9%; 2A StopGo: -17%; Cruzain inh noDet: inconclusive

What do the screens show for `CC(Sc1nnc(Nc2ccccc2)s1)C(=O)Nc1nc(-c2ccccc2)cs1` (configuration not stated)?
Marburg entry inh: inconclusive; RE007 growth inh: 2%; LASV entry inh: inconclusive; 2A StopGo: -7%; NS1 inh: 0%; SARS PLP yeast: -1%

How did COc1ccc(C(=O)NC(=S)NNC(=O)c2c(-c3ccccc3)noc2C)cc1 do in these assays?
Marburg entry inh: -16%; RE007 growth inh: -8%; Cruzain Triton: 4.0%; LASV entry inh: -25%; 2A StopGo: -17%; Cruzain inh noDet: -10%; NS1 inh: 9%; SARS PLP yeast: -10%

What do the screens show for `Cc1cccc(NC(=O)C2CCCN2S(=O)(=O)c2ccc(F)cc2)c1C` (configuration not stated)?
Marburg entry inh: inconclusive; RE007 growth inh: -4%; Cruzain Triton: 0.0%; LASV entry inh: -20%; 2A StopGo: -19%; Cruzain inh noDet: 6%; NS1 inh: 1%; SARS PLP yeast: 2%

How did CCc1ccc(Nc2ccc(S(=O)(=O)N3CCOCC3)cc2[N+](=O)[O-])cc1 do in these assays?
Marburg entry inh: -15%; Cruzain Triton: -7.7%; LASV entry inh: inconclusive; 2A StopGo: inconclusive; Cruzain inh noDet: -4%; NS1 inh: 5%; SARS PLP yeast: 21%

Results for O=C(Nc1ccc(N2CCN(C(=O)c3ccco3)CC2)cc1)c1ccc2c(c1)OCO2 ?
Marburg entry inh: inconclusive; RE007 growth inh: 0%; Cruzain Triton: 1.4%; LASV entry inh: -15%; 2A StopGo: -13%; Cruzain inh noDet: inconclusive; NS1 inh: 10%; SARS PLP yeast: 12%

What do the screens show for `CC(C)[C@H](NC(=O)OCc1ccccc1)C(=O)OCc1cc(=O)oc2cc(O)ccc12`?
Marburg entry inh: -16%; RE007 growth inh: -3%; LASV entry inh: inconclusive; 2A StopGo: -13%; NS1 inh: 3%; SARS PLP yeast: -3%

How did O=C(CCc1ccccn1)N1CCCC(Nc2cccc(F)c2)C1 (configuration not stated) do in these assays?
RE007 growth inh: 1%; 2A StopGo: -14%; NS1 inh: -4%; SARS PLP yeast: 0%

What do the screens show for `COc1ccc(NC(=O)c2ccc3c(=O)n4c(nc3c2)CCCCC4)cc1`?
Marburg entry inh: 15%[46.1 µM]; RE007 growth inh: 1%; LASV entry inh: inconclusive; 2A StopGo: -8%; NS1 inh: -2%; SARS PLP yeast: -8%

What do the screens show for `COc1ccc(Cl)cc1NC(=S)NCCN1CCOCC1`?
RE007 growth inh: -7%; 2A StopGo: -16%; NS1 inh: 0%; SARS PLP yeast: 1%

What do the screens show for `O=C(O/N=C1\CCCc2ccccc21)c1cccc(Cl)c1`?
Marburg entry inh: -8%; RE007 growth inh: -23%; Cruzain Triton: -2.2%; LASV entry inh: 0%; 2A StopGo: 17%; Cruzain inh noDet: -15%; NS1 inh: -14%; SARS PLP yeast: -9%

What do the screens show for `CC1(C)CC(NC(=O)C23CCC(C)(C(=O)C2)C3(C)C)CC(C)(C)N1` (configuration not stated)?
Marburg entry inh: inconclusive; RE007 growth inh: -8%; Cruzain Triton: 3.8%; LASV entry inh: -5%; 2A StopGo: 6%; Cruzain inh noDet: -6%; NS1 inh: 6%; SARS PLP yeast: -3%

How did Cc1ccc(C(=O)C(C)OC(=O)CCN=C2NS(=O)(=O)c3ccccc32)cc1 (configuration not stated) do in these assays?
Marburg entry inh: 17%[46.1 µM]; RE007 growth inh: 2%; LASV entry inh: 24%; 2A StopGo: -20%; SARS PLP yeast: 0%

Results for COc1cccc(-n2cc(C(=O)Oc3cccc(C(F)(F)F)c3)c3ccccc3c2=O)c1 ?
Cruzain Triton: 6.4%; LASV entry inh: 15%[46.1 µM]; 2A StopGo: -23%; Cruzain inh noDet: 1%

Results for CCC(C)C1Nc2ccc(C(=O)NCc3ccc4c(c3)OCO4)cc2NC1=O (configuration not stated) ?
Marburg entry inh: -18%[46.1 µM]; RE007 growth inh: 7%; LASV entry inh: 18%[46.1 µM]; 2A StopGo: 9%; NS1 inh: -1%; SARS PLP yeast: 2%

How did O=C(NCCCN1CCN(c2cccc(Cl)c2)CC1)C1(S(=O)(=O)c2ccc(Cl)cc2)CC1 do in these assays?
Marburg entry inh: -29%; RE007 growth inh: -12%; Cruzain Triton: -12%; LASV entry inh: -9%; 2A StopGo: inconclusive; Cruzain inh noDet: 0%; NS1 inh: -13%; SARS PLP yeast: -5%

How did COC(=O)c1ccc(OCC2c3cc(OC)c(OC)cc3CCN2C(=O)c2ccccc2F)cc1 (configuration not stated) do in these assays?
Cruzain Triton: 9.4%; LASV entry inh: inconclusive; 2A StopGo: -38%; Cruzain inh noDet: inconclusive

Compounds were not picked by outcome, and some 4.5% of all compounds hit somewhere here.
